Cruzain noTriton: cruzain (T. cruzi) inhibition without detergent. purified cruzain, Z-FR-AMC fluorescence, no detergent. Potency, µM, inactives show max response, negative = inhibition, hits mostly inhibitors. AID 1476. 2.3% of 200,000 active; active means well fitted curve in the direction sought with a large enough effect; inconclusive means small, poorly fitted or top-dose-only effect, or another doubt; inactive means no such curve, though single readings can be large; an effect the other way counts as inactive or inconclusive;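 further: plate controls were enzyme without inhibitor for no effect and buffer without enzyme for full effect; nearly all actives have a fitted effect of over 40% in size; top concentration of the series not given in the record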
Target sequence (P25779 123-467 limits assumed): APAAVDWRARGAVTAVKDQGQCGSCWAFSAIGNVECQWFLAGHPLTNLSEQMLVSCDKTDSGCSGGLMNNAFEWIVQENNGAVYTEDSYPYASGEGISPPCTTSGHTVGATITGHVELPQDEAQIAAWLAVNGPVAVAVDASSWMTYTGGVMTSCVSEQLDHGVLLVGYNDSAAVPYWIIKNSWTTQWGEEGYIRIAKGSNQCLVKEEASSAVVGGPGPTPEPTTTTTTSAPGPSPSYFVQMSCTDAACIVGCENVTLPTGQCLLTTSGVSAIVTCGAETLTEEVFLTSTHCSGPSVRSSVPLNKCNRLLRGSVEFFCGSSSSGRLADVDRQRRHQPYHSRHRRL
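Purified cruzain at 1.5 nM, pre-incubated 15 min with compound at room temperature in 100 mM sodium acetate pH 5.5, 5 mM DTT, 0.00005% Triton X-100. Reaction started with 2 uM Z-FR-AMC; AMC fluorescence increase over 60 s gives rate.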
RE007 growth inh: less growth of the S. pombe RE007 Vpr strain; 0.21% of 360,000 active; S. pombe RE007 Vpr strain, BacTiter-Glo ATP luminescence, 24 h; control for the full effect not named in the record; Potency, µM (series often up to 92.2 µM), inactives show at the highest dose activity change, negative = less growth; active = well fitted falling curve with a large enough effect; inconclusive = small, poorly fitted or top-dose-only effect; inactive = no such curve, though single readings can be large or run the other way;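 further: on the % scale 0 is the no-effect control and ±100 the full control effect; nearly all actives have a fitted effect of over 50% in size; the assay follows cell death caused by Vpr and the record does not say whether a fall means rescue or toxicity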
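Fission yeast strain RE007, carrying one chromosomally integrated HIV-1 vpr copy, was seeded at OD 0.01 in PMG+AL medium with 23 nL pinned compound. After 24 h at 30 °C and 99% humidity, viability was read by BacTiter-Glo luminescence.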
MARV entry inh: blocks Marburg virus binding to or entry into cells; Marburg virus pseudotyped entry inhibition, cell reporter; control for the full effect not named in the record; about a third of the inactives were read at about 46 µM; Potency, µM (titrated, usually from 37.8 µM), without a hit: top-dose activity change, negative = inhibition, most hits filed as inhibitors; 1.8% of 300,000 active; active = well fitted inhibition curve with a large enough effect; inconclusive = small, poorly fitted or top-dose-only effect, or effect the other way; inactive = flat fitted curve, though single readings scatter; tested in HEK293 cells; about a fifth of its hits are not listed in these tables; further: on the % scale 0 is the no-effect control and ±100 the full control effect; luciferase read-out
StopGo reporter: FMDV 2A StopGo reporter, luciferase signal. human cells with a luciferase reporter of 2A StopGo recoding; control for the full effect not named in the record. Potency, µM (top dose mostly 57.9 µM), for the others: top-dose signal change, negative = less light. 1.2% of 410,000 active. AID 1159524; active = well fitted falling curve with a large enough effect; inconclusive = small, poorly fitted or top-dose-only effect; inactive = no such curve, though single readings can be large or run the other way; tested in HEK293T cells; further: on the % scale 0 is the no-effect control and ±100 the full control effect; nearly all actives have a fitted effect of over 45% in size; luciferase light after 4 h
Lassa entry inh: inhibitors of Lassa virus binding or cell entry. Lassa virus pseudotype entry inhibition, cell reporter; control for the full effect not named in the record. AID 540256. 1.2% of 300,000 active. Potency, µM (top dose mostly 37.9 µM), for the others: top-dose activity change, negative = inhibition, actives largely listed as inhibitors; active means well fitted inhibition curve with a large enough effect; inconclusive means small, poorly fitted or top-dose-only effect, or effect the other way; inactive means flat fitted curve, though single readings scatter; tested in HEK293 cells; further: on the % scale 0 is the no-effect control and ±100 the full control effect; nearly all actives have a fitted effect of over 50% in size; luciferase read-out
Cruzain inh Det: cruzain (T. cruzi) inhibition with detergent; Potency, µM, inactives show max response, negative = inhibition, actives largely listed as inhibitors; purified cruzain, Z-FR-AMC fluorescence, 0.01% Triton; P25779; 0.43% of 200,000 active; active means well fitted curve in the direction sought with a large enough effect; inconclusive means small, poorly fitted or top-dose-only effect, or another doubt; inactive means no such curve, though single readings can be large; an effect the other way counts as inactive or inconclusive;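 further: plate controls were neutral wells for no effect and buffer without enzyme for full effect; nearly all actives have a fitted effect of over 40% in size; top concentration of the series not given in the record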
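Read-out: AMC fluorescence (360 nm excitation, 450 nm emission), four reads over 2 min, first-to-third difference used. Conditions: cruzain 1.5 nM, Z-FR-AMC 2 uM, pH 5.5 acetate, 5 mM DTT, 0.01% Triton X-100.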
NS1 inh: blocks influenza NS1 protein function; 0.4% of 270,000 active; Potency, µM (titrated, usually from 46.1 µM), for inactives: top-dose activity, positive = more growth; S. cerevisiae slowed by influenza A NS1, growth recovery by OD600; AID 2326; further: actives are rising curves; nearly all actives have a fitted effect of over 50% in size
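Read-out: OD600 growth recovery of NS1-expressing budding yeast. Cells grown overnight at 30C in -URA glucose medium, washed, resuspended and diluted 1:100 in 2% galactose assay medium, pH 6.0. Same strain lacking NS1 served as positive control.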
SARS PLP yeast: inhibitors of SARS-CoV papain-like protease in yeast; 0.19% of 330,000 active; S. cerevisiae expressing SARS-CoV PLpro, growth rescue; control for the full effect not named in the record; Potency, µM (highest dose often 32.9 µM), for inactives: at the top dose activity, positive = growth rescue; further: 0% is about no effect; nearly all actives have a fitted effect of over 55% in size; growth read by luminescence after 48 h
* marks the source's active call; other numbers are inactive results; ? = inconclusive; nt = not tested or not shown; [ ] = another dose, or the depositor's remark. Unless noted, the call rests on the fitted dose curve; in most records, active means well fitted rising curve with a large enough effect; inconclusive means small, poorly fitted or top-dose-only effect; inactive means no such curve, though single readings can be large or run the other way. Potency means the concentration at half of the fitted maximal effect.

SMILES	Cruzain noTriton	RE007 growth inh	MARV entry inh	StopGo reporter	Lassa entry inh	Cruzain inh Det	NS1 inh	SARS PLP yeast
Cc1ccc(S(=O)(=O)N2CCN(C(=O)CSc3cc(C)ccc3C)CC2)c(C)c1	nt	38%	-26%	?	-2%	nt	-1%	0%
CN1CCN(NC(=O)c2cc(-c3ccc(Cl)s3)nc3ccccc23)CC1	nt	-6%	-24%[46.1 µM]	-8%	21%[46.1 µM]	nt	-5%	7%
Cc1ccc(C(=O)CC(=O)c2ccc(C(C)(C)C)cc2)cc1	nt	7%	nt	28%	nt	nt	1%	1%
Cc1cc(C(=O)NCCc2ccc(Cl)cc2)c2ccccc2n1	nt	-8%	nt	?	-13%	nt	-27%	-2%
COc1ccc(S(=O)(=O)N2CCC(C(=O)N[C@@H](C)C(=O)NCc3ccc(F)cc3)CC2)cc1	nt	-9%	7%[46.1 µM]	22%	15%[46.1 µM]	nt	-15%	4%
COc1cc(NC(=O)N2c3ccccc3Sc3ccccc32)cc(OC)c1	?	nt	-17%[46.1 µM]	-3%	22%[46.1 µM]	-7.0%	nt	nt
CCOc1ccccc1CNC(=O)c1ccc(NC(=O)C2=C(C)OCCS2)cc1	nt	2%	nt	-18%	nt	nt	6%	-4%
COc1cc(CN(CC2CCCO2)C(=O)c2ccccc2F)cc(OC)c1OC (centres undefined)	17%	nt	1%[46.1 µM]	-9%	-24%[46.1 µM]	-1.0%	nt	nt
Cc1cc(=O)n(CC(=O)NCCN2CCOCC2)c2c1c(C)nn2-c1ccccc1	nt	0%	nt	13%	1%[46.1 µM]	nt	1%	3%
CCN(CC)c1ccc(C(=O)Nc2ccc3nc(N(CC)CC)cc(C)c3c2)cc1	-8%	nt	11µM*	-27%	?	-13%	nt	nt
COc1ccc(-c2c(-c3ccc(OCC(=O)NN)cc3O)n[nH]c2C(F)(F)F)cc1	3%	6%	?	-3%	?	-5.6%	?	14%
CCOc1ccc(CCNC(=O)CS(=O)(=O)Cc2nc(-c3cccc(OC)c3)oc2C)cc1	nt	8%	nt	-25%	nt	nt	-6%	0%
N=c1sc2c(n1Cc1ccccc1)CCCC2	-2%	0%	?	nt	7%	0.9%	-2%	-4%
COc1ccc(OC)c(-n2cnnn2)c1	2%	-9%	-3%	1%	22%	5.5%	3%	1%
COc1ccc(C(=O)O)cc1S(=O)(=O)NC(C)(C)C	nt	8%	nt	18%	nt	nt	6%	1%
O=C(NCCS(=O)(=O)NCCCc1ccccc1)c1ccccc1	nt	-2%	8%[46.1 µM]	-3%	-15%	nt	nt	?
COc1cc(CNC2CCCC2)cc(Br)c1OCC(=O)Nc1ccccc1C	nt	?	nt	-7%	nt	nt	-1%	0%
CC(C)(C)CC(C)(C)NC1=CC(=O)OC12CCCCC2	-5%	-6%	-26%	-16%	?	1.0%	0%	4%
CCc1nnc(NC(=O)CN2CCN(Cc3ccccc3Cl)CC2)s1	nt	8%	-1%[46.1 µM]	0%	1%[46.1 µM]	nt	8%	-10%
COc1cc(OC)cc(C(=O)Nc2ccc(S(=O)(=O)N3CCCCC3c3cccnc3)cc2)c1 (centres undefined)	-3%	nt	nt	?	?	-2.2%	nt	nt
Cc1cccc(C(=O)NNC(=O)Nc2ccccc2)c1	nt	55%	-3%[46.1 µM]	-1%	22%[46.1 µM]	nt	nt	1%
COc1cccc(-c2nnc(SCC(=O)Nc3ccc4c(c3)OCCO4)n2Cc2ccco2)c1	4%	-7%	-22%[46.1 µM]	-14%	-10%	-1.1%	-4%	-4%
Cc1ccccc1-n1nc(CO)c(C(=O)NCC(c2ccccc2)c2ccccc2)n1	3%	nt	-28%[46.1 µM]	13µM*	?	-4.8%	nt	nt
Cc1ccc(C(=O)N/C(=C/c2ccc(C(C)C)cc2)C(=O)NCCCN2CCOCC2)cc1	nt	5%	nt	-4%	nt	nt	3%	1%
O=C(N/N=C/c1c[nH]c2ccc(Br)cc12)c1ccccn1	nt	-18%	-12%[14.2 µM]	8%	10%	nt	-8%	-4%
Cc1c(Cl)cccc1NC(=O)CN1C(=O)C(C)N=C(c2ccccc2)c2ccccc21 (centres undefined)	2%	nt	-6%[46.1 µM]	-10%	-5%[46.1 µM]	-2.6%	nt	nt
S=c1[nH]c(-c2cccs2)cn1-c1ccccc1	nt	9%	?	34%[activator]	?	nt	18%	11µM*
CCOC(=O)C1=C(CN2CCN(C(=O)c3ccco3)CC2)NC(=O)NC1c1ccc(C)cc1 (centres undefined)	nt	31%	nt	-13%	nt	nt	-1%	7%
COC(=O)C1C(=O)c2c([nH]c(C(=O)OC3CCCC3)c2C)CC1C (centres undefined)	0%	2%	nt	-7%	?	-2.2%	-4%	nt
O=C(c1ccc(C(=O)N2CCCc3ccccc32)nc1)N1CCCc2ccccc21	-8%	1%	22%	nt	5%	-3.5%	6%	4%
Cc1noc(C)c1COc1ccccc1C(=O)N1CCN(S(=O)(=O)c2ccccc2C(F)(F)F)CC1	nt	-22%	-4%	-11%	-11%	nt	nt	6%
O=C(Cn1cnc2c(cnn2-c2ccccc2)c1=O)c1ccc(Cl)cc1	-12%	-12%	nt	-20%	nt	1.2%	0%	-7%
CCOc1ccccc1CC1C(=O)Nc2ccc(Br)cc21 (centres undefined)	11%	nt	?	?	-3%[46.1 µM]	-11%	nt	nt
Nc1c(C(=O)Nc2cccc(Cl)c2Cl)sc2nc(-c3cccnc3)ccc12	-9%	nt	?	19%	29%	2.0%	2%	4%
CC(=NCCO)c1c(O)n(C)c(=O)n(C)c1=O	?	0%	?	nt	7%	-8.1%	1%	?
O=C(Nc1nc(-c2ccc(F)cc2)cs1)c1ccc(N2C(=O)CCC2=O)cc1	2%	-13%	?	?	-14%	2.3%	18%	23%
CCN(CC)S(=O)(=O)c1ccc(C(=O)OCC(=O)Nc2ccc(-c3nc4ccc(C)cc4s3)cc2)cc1	?	4%	?	?	?	1.0%	3%	2%
COc1nc(NC2CCCCC2)nc(N2CCCCCC2)n1	0%	-27%	?	?	?	-8.3%	-14%	-3%
COc1ccc(NC(=S)NCCCCCC(=O)C[N+](=O)[O-])cc1	nt	-22%	-8%[46.1 µM]	5%	-2%[46.1 µM]	nt	nt	-1%
Cc1cccc(-c2noc(-c3ccc(NCC4CCCO4)c([N+](=O)[O-])c3)n2)c1 (centres undefined)	1%	nt	7%[46.1 µM]	-13%	4%[46.1 µM]	1.0%	nt	nt
Cc1ccc2c(CSc3nncs3)cc(=O)oc2c1	-23%	3%	0%	nt	8%	-0.7%	-14%	-7%
CCOc1ccc(CCNC(=O)Cn2c(-c3nonc3N)nc3ccccc32)cc1OCC	?	5%	-11%	?	-7%	-5.9%	18%	-1%
COCCCN1CN(S(=O)(=O)c2cccs2)c2nc3ccccc3nc21	nt	2%	-11%[46.1 µM]	7%	14%	nt	2%	0%
COC(=O)c1sc(NC(=O)CSc2nnnn2C)nc1C	nt	3%	?	34%[activator]	?	nt	-8%	1%
COC(=O)C1C(=O)C=C(N2CCOCC2)CC1(C)C (centres undefined)	-2%	17%	-9%	-15%	-2%	-0.4%	5%	3%
NNC(=O)C(Cc1c[nH]c2ccccc12)NC(=O)c1ccccc1 (centres undefined)	nt	-9%	4%[46.1 µM]	12%	17%	nt	1%	0%
COc1ccc(CCn2nnnc2CN2CCN(C(=O)c3ccco3)CC2)cc1OC	nt	3%	17%[46.1 µM]	5%	-1%[46.1 µM]	nt	6%	0%
CCOC(=O)C1CCCN(S(=O)(=O)c2cc3[nH]c(=O)c(=O)[nH]c3cc2C)C1 (centres undefined)	nt	-4%	nt	-6%	nt	nt	1%	1%
Nc1c(C(=O)NC2CCCC2)c2nc3ccccc3nc2n1/N=C/c1ccco1	?	-1%	-5%	9%	-12%	-7.5%	-7%	-6%
CC(C)[C@H](NC(=O)c1c(F)cccc1F)C(=O)Nc1cccc(Br)c1	nt	-5%	nt	-15%	nt	nt	3%	0%
O=C(C1CCCN(Cc2ccc3c(c2)OCO3)C1)N1CCCC1 (centres undefined)	10%	-15%	1%[46.1 µM]	-16%	9%	2.1%	-1%	6%
CC(C)COc1cccc(C(=O)N(C)CC(=O)Nc2cccc3ccccc23)c1	nt	-13%	?	-18%	?	nt	nt	14µM*
COc1ccccc1CCNC(=O)C(=O)NCC1OCCN1S(=O)(=O)c1ccccc1 (centres undefined)	nt	4%	nt	-23%	nt	nt	-5%	?
O=S(=O)(NCC(c1ccco1)N1CCc2ccccc21)c1ccccc1 (centres undefined)	nt	0%	?	37%[activator]	13%	nt	nt	-1%
CCCS(=O)(=O)c1ncc(Cl)c(C(=O)Nc2c(C(=O)Nc3ccccc3)oc3ccccc23)n1	?	nt	-15%[46.1 µM]	?	?	-2.3%	nt	nt
CCc1nnc(NC(=O)CSc2nccn2Cc2ccc(Cl)cc2)s1	6%	nt	nt	-26%	-17%[46.1 µM]	-1.2%	nt	nt
O=C(NC(O)C(=O)c1cccs1)c1cccnc1 (centres undefined)	-10%	-1%	-15%	-16%	4%	-0.5%	-2%	-2%
COCCN(CC1CCCN(C2Cc3ccccc3C2)C1)C(=O)c1cccc(C)c1 (centres undefined)	nt	2%	?	2%	-13%[46.1 µM]	nt	-4%	-3%
COc1ccc(C(CC(=O)Nc2nccs2)n2cccc2)cc1 (centres undefined)	-1%	3%	?	31%[activator]	?	2.9%	-8%	0%
COC(=O)c1ccc(NC(=O)CSc2ncc3c(n2)-c2cc(Cl)ccc2N(Cc2ccccc2)S3(=O)=O)cc1	-4%	nt	nt	3%	9%[46.1 µM]	1.5%	nt	nt
CC1CCN(C(=O)COC(=O)c2ccc(N3CCCC3=O)cc2)CC1	nt	24%	?	5%	13%	nt	nt	8%
CN(CCC#N)C(=O)CC1(Cc2ccccc2)CCOC(C)(C)C1 (centres undefined)	nt	2%	nt	-6%	nt	nt	2%	-1%

Screening results: PubChem, National Center for Advancing Translational Sciences (NCATS)
